# Source: PubChem BioAssay (several laboratories)
# Sa RN4220 lethal = growth inhibition of S. aureus RN4220, primary screen, OD600. 330,000 tested, 0.33% active. 16 h. inhibition, % (no concentration beside the values). AID 1259311, 2017;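 active means z-score of -3 or lower and OD600 up to 0.18 on both plates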;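 further: plate controls were untreated cells for no effect and reference antibiotic for full effect; stock transfer was 100 nL into about 80 µL; one replicate is shown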
# PrP 5UTR inh = inhibition of PrP 5' UTR reporter expression | cell-based PrP 5' UTR mRNA reporter, plate reader | inhibition, % (test concentration not listed) | 340,000 tested, 0.35% active | AID 488862, 2010;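 active means every replicate at 50% or more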;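 further: 0 = median of the neutral control wells; tested in H4 reporter cells; numbers are from one replicate; inactives centre near -14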
# Mtb hypoxia rep = PubChem AID 1159583; fluorescence inhibition, % (test concentration not listed); 300,000 tested, 0.1% active; M. tuberculosis hypoxia-regulated fluorescent reporter, fluorescence;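 active means 35 to 45% if threefold the growth effect, above 45% if 1.5-fold the growth effect; inactive means the rest, general growth blockers included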;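 further: wells of about 50 µL received 100 nL stock; 0% = vehicle wells and 100% = reference inhibitor wells; whole bacteria with a GFP reporter of the hypoxia response; strong numbers were not always called active; many hits fall short of the cut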
# ugtP null kill = growth inhibition of ugtP-null S. aureus, primary screen, RN4220 ugtP deletion, OD600 | 16 h; some inactives read as strong as hits | growth inhibition, % (concentration not given with the values) | 330,000 tested, 0.54% active | AID 1259309, 2017;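 active means z-score under -3 and OD600 up to 0.15 on both plates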;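 further: plate controls were untreated wells for no effect and antibiotic for full effect; wells of about 80 µL received 100 nL stock; the first replicate is given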
# Bead autofluor = counter-screen for toxin protease inhibitors: compound fluorescence; compound autofluorescence counterscreen, microsphere flow cytometry; hits give high values; fluorescence intensity (no concentration beside the values); 360,000 tested, 3.1% active;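 active means at least 3 SD above the mean of all compounds, about 16000 in these data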;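 further: 100 nL of 1 mM stock went into each well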
# BJeLR viability = MLPCN primary cell-based screen for lethality selective to Ras in HRASV12 cells | BJeLR (HRASV12) viability, CellTiter-Glo ATP luminescence, 48 h; reference of the scale not given here | 300,000 tested, 0.17% active | inhibition, % (no concentration beside the values);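 active means replicate mean above 50%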;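 further: 50 nL library stock added to about 25 µL; numbers are from one replicate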
# Mtb hypoxia rep growth = also measured in Mtb hypoxia rep; calls as there; growth inhibition, %; measured here: M. tuberculosis growth (absorbance);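 0% = vehicle and 100% = reference antibiotic; read after six days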
# * hit, by the source's call; nt = no result given.
SMILES,Sa RN4220 lethal,PrP 5UTR inh,Mtb hypoxia rep,Mtb hypoxia rep growth,ugtP null kill,Bead autofluor,BJeLR viability
CCCCNc1nc2ccccc2n1CC(=O)Nc1ccc2c(c1)OCCO2,-4.1,nt,4,12,-1,nt,4
COc1ccc(N(CC(=O)N2CCN(c3cccc(C)c3C)CC2)S(=O)(=O)c2c(C)noc2C)cc1,5.7,-13,-2,6,10,5699,-7
Cc1ccc(S(=O)(=O)CCC(=O)Nc2ccccc2Cl)cc1,4.8,-4,2,10,5,3808,-8
CNC(=O)CSc1nccn1Cc1ccc(Cl)cc1,14,-32,15,0,7,4133,-1
O=C(COC(=O)CCCNC(=O)c1ccc(Cl)cc1)Nc1ccc(Br)cc1,-2.2,-38,0,8,4,2059,5
COc1cccc(OC)c1OCCOCCN1CCN(C)CC1,1.5,-4,0,-3,9,3915,-1
CC12CC3CC(C)(C1)CC(Nc1nc(N4CCOCC4)nc4ccccc14)(C3)C2,-0.6,-4,-4,9,-33,3903,0
CCC(=O)Oc1ccc(-c2nc(-c3cccnc3)no2)cc1,2.4,-38,0,0,-3,20402*,8
CS(=O)(=O)Cc1ccc(C(=O)NC2CCN(Cc3ccccc3)C2)cc1 (stereo not given),0.7,-6,3,6,3,3930,-14
O=C(COC(=O)CCC(=O)c1cccs1)NC1CC1,4.7,-23,10,9,10,4067,-27
COc1cc(OC)c2c(-c3cccc(-c4ccoc4)c3)cc(=O)oc2c1,-1.0,-18,4,0,-13,3581,nt
O=C(NC1CC1)C1=C[C@H](c2csc3ccccc23)C[C@H](OCc2ccc(CO)cc2)O1,nt,2,nt,nt,nt,4003,0
COc1ccc(N(CC(=O)NN=Cc2cccs2)S(=O)(=O)c2ccccc2)cc1,3.1,nt,1,6,5,nt,nt
CC(=O)c1cc2c(cc1NC(=O)c1cccc(S(=O)(=O)N3CCN(C)CC3)c1)OCO2,2.9,-25,-11,-6,4,3311,-3
CC1CCN(C(=O)c2ccc3c(Cl)c4c(nc3c2)CCCC4)CC1,5.4,-16,7,9,-1,1967,-5
CCC(=O)Nc1nnc(S(=O)(=O)N2c3ccccc3CC2C)s1 (stereo not given),6.7,-11,2,2,0,4389,3
NC(=NCCCC(NC(=O)CNC(=O)c1ccccc1)C(=O)O)N[N+](=O)[O-] (stereo not given),-0.4,nt,8,4,2,nt,nt
CCCCN1/C(=C/c2ccc3ccccc3[n+]2CC)Sc2ccccc21,nt,-5,nt,nt,nt,13406,5
CC(=O)N1N=C(c2ccncc2)OC12CCCC2,7.3,-88,1,7,-1,2785,5
CCCCn1c(N)c(N(CCOC)C(=O)c2ccc(-c3cccc(C(F)(F)F)c3)o2)c(=O)[nH]c1=O,3.1,-12,7,0,7,nt,6
Cc1cccc(-c2noc(CNS(=O)(=O)c3ccccc3)n2)c1,1.9,-14,5,8,-5,6639,7
CCC(Oc1ccccc1)C(=O)Nc1cc(Cl)ccc1-n1cncn1 (stereo not given),5.1,-31,7,-1,-1,5748,5
Cc1cc(C)nc(Nc2ncn[nH]2)n1,4.2,nt,10,5,6,nt,1
COC(=O)CSc1nnc(-c2ccc3c(c2)OCO3)n1C,0.1,2,-6,-5,6,2903,1
Cc1ccc2oc(-c3cccc(NC(=O)c4ccccn4)c3)nc2c1,nt,-47,nt,nt,nt,4567,-16
COc1ccc(C2=CC(=O)N(Nc3ccccc3)C2=O)cc1,3.4,nt,2,-1,-6,3399,nt
CCOC(=O)N1CCN(C(=O)C2CCN(S(=O)(=O)c3cc(OC)ccc3OC)CC2)CC1,6.4,-20,8,-4,-2,4705,-2
COc1ccc(NC(=O)COc2ccc3c(c2)CCC3)cc1,0.4,-10,3,5,-16,5332,1
CCc1ccc(NC(=O)[C@@H](NC(=O)[C@@H]2Cc3ccccc3CN2)C(C)CC)cc1 (stereo not given in full),0.4,-30,14,0,0,4793,-1
O=C(C1CCN(S(=O)(=O)c2ccc(Cl)cc2)CC1)N1CCN(c2ccccn2)CC1,3.6,-22,9,7,2,3595,nt

# Results in Bead autofluor, for five of the compounds above:
canonical_smiles,Bead autofluor
O=C(C1CCN(S(=O)(=O)c2ccc(Cl)cc2)CC1)N1CCN(c2ccccn2)CC1,3595
Cc1cccc(-c2noc(CNS(=O)(=O)c3ccccc3)n2)c1,6639
COc1ccc(NC(=O)COc2ccc3c(c2)CCC3)cc1,5332
CCCCN1/C(=C/c2ccc3ccccc3[n+]2CC)Sc2ccccc21,13406
Cc1ccc2oc(-c3cccc(NC(=O)c4ccccn4)c3)nc2c1,4567

# Three entries from above in another layout.
mol	Sa RN4220 lethal	PrP 5UTR inh	Mtb hypoxia rep	Mtb hypoxia rep growth	ugtP null kill	Bead autofluor	BJeLR viability
CCCCN1/C(=C/c2ccc3ccccc3[n+]2CC)Sc2ccccc21	nt	-5	nt	nt	nt	13406	5
O=C(COC(=O)CCCNC(=O)c1ccc(Cl)cc1)Nc1ccc(Br)cc1	-2.2	-38	0	8	4	2059	5
CC1CCN(C(=O)c2ccc3c(Cl)c4c(nc3c2)CCCC4)CC1	5.4	-16	7	9	-1	1967	-5

# Other results.
SMILES,Sa RN4220 lethal,PrP 5UTR inh,Mtb hypoxia rep,Mtb hypoxia rep growth,ugtP null kill,Bead autofluor,BJeLR viability
COc1cccc(/C=C(/C#N)c2nc3ccccc3[nH]2)c1OC(C)C(=O)O (stereo not given),5.0,-6,10,-3,18,3511,1
COc1ccc(C(=O)n2nc(-c3ccccc3)nc2N)cc1OC,2.5,-17,nt,nt,-4,2120,-3
COc1cccc(NC(=O)c2ccn(C)n2)c1,4.3,-39,0,5,3,4273,1
Cc1c(Cl)cccc1NC(=S)NN,-3.4,-12,9,-2,11,8728,1
CCN(CCO)c1cc(Cl)nc(SC)n1,8.6,-43,9,11,1,24730*,14
CN1CCN(C(=O)CC2C(=O)NCCN2Cc2ccc(-c3ccccc3)cc2)CC1 (stereo not given),-0.1,-22,8,1,9,4511,-1
COc1ccc(NC2CCCN(C(=O)c3cccnc3SC)C2)cc1OC (stereo not given),0.6,-9,-3,-5,4,4310,-8
O=C1CCCc2nc3c(cc21)C(O)Oc1ccccc1-3 (stereo not given),2.7,1,-4,-12,-5,4961,0
CCCCNC(=O)OCCNC(=O)Oc1cccc(C)c1,5.9,-14,7,5,3,3137,3
COC(=O)CCC(=O)NNC(=O)c1ccc([N+](=O)[O-])cc1,4.1,-24,17,2,3,4412,-3
COc1cc(C)ccc1OCC(=O)OCC(=O)c1ccc[nH]1,0.5,-2,1,7,6,3434,nt
CN(CC(=O)Nc1cccc2ccccc12)C(=O)c1cccc(S(=O)(=O)N(C)C)c1,-0.3,-18,3,1,-3,4656,11
CC1CCC(NC(=O)COC(=O)CCC(=O)c2ccc(Cl)s2)CC1 (stereo not given),-0.5,-27,12,7,2,4039,-2
O=C(O)c1ccc(/C=N\Nc2ccc(S(=O)(=O)N3CCOCC3)cc2[N+](=O)[O-])cc1,nt,-16,nt,nt,nt,3650,-5
COc1ccc(S(=O)(=O)Nc2ccc(C)cc2)cc1OC,-0.1,-15,4,-6,0,9821,6
COc1ccc(S(=O)(=O)Nc2ccc(Nc3ccccc3)cc2)cc1,-5.8,nt,-8,-4,20,2907,-5
CN(C(=O)c1ccc(S(=O)(=O)N2CCCCC2)cc1)C1CCS(=O)(=O)C1 (stereo not given),1.6,-32,0,6,2,nt,4
COc1ccc(-c2nc3ncccn3c2Br)cc1,3.2,-46,nt,nt,2,3400,-7
COc1cccc(NC(=O)c2cnc[nH]2)c1,2.2,-24,13,5,5,3833,4
O=C(COc1ccccc1)NCC(=O)N1CCCC(C(F)(F)F)C1 (stereo not given),4.1,-4,1,4,6,6008,nt
O=C(Cn1ccc(=O)[nH]c1=O)Nc1ccc(C(=O)O)c(O)c1,nt,11,nt,nt,nt,3967,5
Cc1cccc(NC2=NC(C)(C)N=C(N)N2)c1C,2.2,-10,nt,nt,-5,nt,10
CCOC(=O)CCCCC(=O)c1[nH]c(=O)[nH]c1C[n+]1ccc(C)cc1,3.9,-5,6,7,15,4458,3
C/C(=N/Nc1cc(-c2ccccc2)nc(-c2ccccc2)n1)c1ccc(O)cc1,nt,-42,nt,nt,nt,8856,-9
C/C(CC(=O)Nc1cccnc1)=N\NC(=O)c1ccc([N+](=O)[O-])c(Cl)c1,nt,-14,nt,nt,nt,1965,2
CC(=NNC(=O)c1ccc([N+](=O)[O-])c(C)c1)c1ccccc1Cl,1.9,nt,9,5,5,nt,nt
COc1ccc(NC(C)=O)cc1S(=O)(=O)NC(Cc1ccccc1)C(=O)NCc1ccccc1C (stereo not given),4.3,-24,12,5,4,3404,-7
Cc1ccc(S(=O)(=O)/N=C(/Nc2c(C)n(C)n(-c3ccccc3)c2=O)c2ccc(Cl)cc2)cc1,-15,-17,3,13,-3,3226,0
O=C(/C=C\c1cn(-c2ccccc2)nc1-c1ccccc1)Nc1nccs1,6.3,-15,-18,-1,-25,1992,-18
Cn1c(=O)[nH]c(=O)c2c1nc(Br)n2C/C=N/Nc1ccccc1,nt,-9,nt,nt,nt,4607,6

# One compound at a time, from the list above. Order of values: Sa RN4220 lethal | PrP 5UTR inh | Mtb hypoxia rep | Mtb hypoxia rep growth | ugtP null kill | Bead autofluor | BJeLR viability
# `CC(=NNC(=O)c1ccc([N+](=O)[O-])c(C)c1)c1ccccc1Cl` in the list: 1.9 | nt | 9 | 5 | 5 | nt | nt
# `COc1ccc(NC(C)=O)cc1S(=O)(=O)NC(Cc1ccccc1)C(=O)NCc1ccccc1C` (stereo not given) in the list: 4.3 | -24 | 12 | 5 | 4 | 3404 | -7
# `COc1ccc(-c2nc3ncccn3c2Br)cc1` in the list: 3.2 | -46 | nt | nt | 2 | 3400 | -7
# `Cn1c(=O)[nH]c(=O)c2c1nc(Br)n2C/C=N/Nc1ccccc1` in the list: nt | -9 | nt | nt | nt | 4607 | 6

# Carrying on.
SMILES,Sa RN4220 lethal,PrP 5UTR inh,Mtb hypoxia rep,Mtb hypoxia rep growth,ugtP null kill,Bead autofluor,BJeLR viability
CCOP(=O)(c1ccc(N(C)C)cc1)C(O)c1ccc(OC)cc1 (stereo not given),2.4,-7,0,-14,2,3891,2
CCC12OC(=N)C(C#N)(C1C)C(C#N)(C#N)C(c1ccccc1)O2 (stereo not given),3.0,-23,5,2,-4,10641,-5
COc1ccc(/C(N)=N/OC(=O)Cc2cccs2)cc1OC,nt,-43,nt,nt,nt,2115,-2
O=C(NCC#CCOCc1ccccc1)c1ccccc1,5.1,-7,6,10,3,3151,-4
CCCCCCn1c(=O)[nH]c2c(c1=O)CCC2,4.9,-27,2,-13,11,5690,-1
CC1=C(C#N)C2C(/C1=N/O)C2(C)C (stereo not given),nt,-47,nt,nt,nt,10076,2
COc1ccc(N=C2SCC(c3ccccc3)=NN2C)cc1,2.3,-22,5,6,15,4218,-6
N#CCCn1cc(C(=O)O)c(-c2cc3ccccc3o2)n1,nt,-3,nt,nt,nt,7854,7
CCc1ccccc1NC(=O)NCc1cccnc1,2.5,-16,5,-10,1,5841,2
CCN1CCN(CCC(=O)Nc2ccc(C)cc2)CC1,1.9,-24,3,3,9,3115,10

# 3 entries picked at random from those above:
SMILES,Sa RN4220 lethal,PrP 5UTR inh,Mtb hypoxia rep,Mtb hypoxia rep growth,ugtP null kill,Bead autofluor,BJeLR viability
CCc1ccccc1NC(=O)NCc1cccnc1,2.5,-16,5,-10,1,5841,2
N#CCCn1cc(C(=O)O)c(-c2cc3ccccc3o2)n1,nt,-3,nt,nt,nt,7854,7
COc1ccc(/C(N)=N/OC(=O)Cc2cccs2)cc1OC,nt,-43,nt,nt,nt,2115,-2
